Rce1 inhib – inhibitors of yeast Ras-converting enzyme; Q03530; yeast membranes, quenched prenylated peptide cleavage fluorescence; calls only; 290,000 tested, 0.27% active;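 active = fall in fluorescence gain of 50% or more versus controls, with final raw signal at or below 3038400; inconclusive = same 50% fall but final raw signal above 3038400; inactive = fall in fluorescence gain under 50%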;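 also: plate controls were neutral control wells for no effect and wells lacking membranes for full effect; tested at 10 µM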
Yeast UUG start – modulators of start codon recognition fidelity in yeast; S. cerevisiae UUG-firefly luciferase reporter, luminescence/redox ratio; activity score, % at 18.7 µM; 350,000 tested, 0.13% active;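 active = replicate mean at a twofold rise or more, about +100% in these data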;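 also: firefly luciferase made from a UUG start codon reports start codon fidelity; reporter light over untreated wells divided by growth signal over untreated wells; some hits fall short of that in this replicate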
HIV Env fusion – HIV envelope-mediated fusion inhibition | HeLa-JRFL Env/CEM21 cell fusion, luciferase | inhibition, % at 12.3 µM | 360,000 tested, 1.1% active | AID 651610;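 active = mean replicate inhibition score of at least 50 and every replicate individually at or above 50; inconclusive = only one of the two criteria met; inactive = mean below 50 and not all replicates reaching 50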;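 also: 0% = plate neutral controls and 100% = maraviroc near 300 nM; one replicate is shown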
CSC inhib – blocks cancer stem cells; inhibition, % at 7.5 µM; 300,000 tested, 1.1% active; cancer stem cell-like cells viability, luminescence;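 active = mean at 75% or more and at least half the replicates too; inconclusive = mean and replicates disagree; tested in HMLE shEcad cells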;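 also: 0% = median of negative and 100% = median of positive control wells; the first replicate is given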
MT1-MMP act inh – MT1-MMP (human) activation inhibition | P50281 | HT1080 RFP-PRO-GFP cells, GFP/RFP ratio fluorescence, overnight; percent of plate control window, DMSO zero | GFP/RFP ratio change, % at 20 µM | 360,000 tested, 0.061% active;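 active = GFP/RFP ratio change of at least 30% with cell ATP level not reduced by more than half and red fluorescence within 50% of control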; also: strong numbers were not always called active
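Material: RFP-PRO-GFP reporter HT1080 cells. Dosing: single-point 20 µM compound, 1% DMSO. Controls: DMSO and RFP-L50D-GFP cell wells. Timing: cells overnight before dosing, compound overnight, 37 °C, 5% CO2. Measure: GFP/RFP fluorescence ratio.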
PABP FP inh – blocks human PABP binding to poly(A) RNA; P11940; fluorescence polarization; inhibition, % at 35 µM; 290,000 tested, 1% active; AID 2014;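 active = 50% or more with normal probe brightness, or confirmed in later tests; inconclusive = above 50% with abnormal brightness, or retests that disagree; inactive = below 50% or failed in later tests; about a fifth of its hits are not listed in these tables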;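 also: calls also rest on retests at 20 µM and on dose response follow-up; controls were probe without protein and protein plus probe with vehicle; some compounds called inactive have numbers as strong as hits; many hits fall short of the cut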
Target sequence (P11940 whole entry, looked up): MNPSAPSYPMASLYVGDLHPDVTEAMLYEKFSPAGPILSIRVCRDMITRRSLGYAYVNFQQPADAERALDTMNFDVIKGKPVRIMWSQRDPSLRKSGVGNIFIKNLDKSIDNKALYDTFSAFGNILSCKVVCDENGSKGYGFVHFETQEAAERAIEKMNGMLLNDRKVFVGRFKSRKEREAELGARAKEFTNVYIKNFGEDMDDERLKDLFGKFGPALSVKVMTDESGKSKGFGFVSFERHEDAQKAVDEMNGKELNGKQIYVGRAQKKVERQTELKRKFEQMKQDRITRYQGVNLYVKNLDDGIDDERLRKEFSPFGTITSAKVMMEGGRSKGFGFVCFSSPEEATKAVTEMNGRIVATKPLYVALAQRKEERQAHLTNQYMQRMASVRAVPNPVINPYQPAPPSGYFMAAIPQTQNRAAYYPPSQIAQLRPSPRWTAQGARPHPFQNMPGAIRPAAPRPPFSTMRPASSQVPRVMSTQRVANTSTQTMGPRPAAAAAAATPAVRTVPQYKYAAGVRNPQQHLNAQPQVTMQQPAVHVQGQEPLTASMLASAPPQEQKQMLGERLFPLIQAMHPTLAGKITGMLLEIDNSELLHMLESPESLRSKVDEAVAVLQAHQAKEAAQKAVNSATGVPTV
eIF4H inh – inhibitors of RNA binding by human eIF4H; Q15056; AID 2012; 290,000 tested, 0.94% active; eIF4H fluorescence polarization binding assay; inhibition, % at 35 µM;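 active = 50% or more with normal probe brightness, or confirmed in later tests; inconclusive = above 50% with abnormal brightness, or retests that disagree; inactive = below 50% or failed in later tests; about a fifth of its hits are not listed in these tables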;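 also: calls also rest on retests at 20 µM and on dose response follow-up; 0% = protein and probe with vehicle and 100% = probe without protein; strong numbers were not always called active; many hits fall short of the cut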
MT1-MMP act inh RFP – recorded beside MT1-MMP act inh, whose call it bears; RFP signal change, %; measured here: RFP expression control read;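 0 = vehicle wells; hits needed this value within 50% of zero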
The depositor's hits bear a star; i = inactive; ? = inconclusive; / = not tested or not shown. Rows were taken by chance, and some 2.9% of all compounds hit somewhere here.

SMILES | Rce1 inhib | Yeast UUG start | HIV Env fusion | CSC inhib | MT1-MMP act inh | MT1-MMP act inh RFP | PABP FP inh | eIF4H inh
Cc1cc(Cl)ccc1C(O)c1ncc(-c2cccc(C(F)(F)F)c2)[nH]1 (stereo unspecified) | / | -9 | -1 | / | 4 | -4 | / | /
Cc1ccc2sc(=O)[nH]c2c1 | i | -11 | -3 | -17 | 2 | 2 | -6 | 1
Fc1ccc(-c2nnc(-c3ccc4ccccc4c3)o2)cc1 | / | -34 | i | / | -4 | 1 | / | /
CC(OC(=O)CSCC(=O)Nc1ccc(Cl)cc1)C(=O)N(C)Cc1ccccc1 (stereo unspecified) | / | 6 | 5 | / | 0 | 0 | / | /
O=c1c2ccccc2[nH]c(=S)n1-c1cccc(S(=O)(=O)N2CCCC2)c1 | i | / | 5 | -12 | 1 | 2 | -4 | 4
CC(C)=C1SC(N2CCCCC2)=NC1=O | i | -14 | / | -1 | 0 | 2 | 1 | -10
Cc1cccc(C(=O)NCCCNC(=O)c2ccc(C)nc2)c1 | i | -22 | 17 | -5 | 1 | 4 | -5 | -4
C#CCOCCOCCOCCNc1nc(N2CCN(C(=O)[C@H](CCC(=O)O)n3cc([C@@H](N)CCCCN)nn3)CC2)nc(N2CCN(C(=O)[C@H](CCC(=O)O)n3cc([C@@H](N)CCCCN)nn3)CC2)n1 | / | 11 | -13 | / | 1 | 4 | / | /
Cc1cc(Br)ccc1NC(=O)CN1C(=O)C2C3CC(c4ccccc4)C(C3)C2C1=O (stereo unspecified) | i | / | / | 22 | -3 | -10 | 1 | 0
COc1ccc(CN2CCN(C3CCC3)CC2CCO)c(C)c1C (stereo unspecified) | i | -10 | 13 | 9 | -1 | 6 | 10 | -2
CCOc1ncccc1C(=O)Nc1ccc(S(=O)(=O)NC2=NCCCCC2)cc1 | i | / | 0 | -5 | 1 | -7 | 19 | -4
O=C(Cc1ccccc1)NCCc1cnc[nH]1 | i | -22 | -2 | -1 | 1 | 2 | 3 | -4
COc1ccc(N(CC(=O)NCCC2=CCCCC2)S(C)(=O)=O)cc1 | i | -15 | 51 | -18 | 7 | 0 | -4 | 5
CCOC(=O)C1CCN(C2=NC(=O)/C(=C/c3ccccc3OC)S2)CC1 | i | 0 | -4 | -7 | -4 | -3 | 5 | -4
Cc1cc(C)nc(SCCS(=O)Cc2ccc(Cl)cc2)n1 (stereo unspecified) | i | / | / | 3 | -2 | 2 | -6 | -7
COc1cc(CC(NC(C)=O)C(=O)NC2CCN(C(=O)Nc3ccc(C)cc3)CC2)cc(OC)c1 (stereo unspecified) | i | -15 | -3 | -15 | 4 | 3 | -7 | -5
Cc1sc(NC(=O)CSc2nnnn2C)c(C#N)c1C | i | -15 | 26 | -6 | -4 | 2 | 14 | 10
CCCN1CNC(=S)N(c2ccccc2OCC)C1 | i | -20 | -26 | 4 | 1 | 8 | 5 | -9
Cc1ccc(NC(=O)NNC(=O)COc2ccc3ccccc3c2)cc1 | i | -10 | -3 | / | 3 | 1 | 4 | 5
COc1ccc(NC(=O)CS(=O)(=O)Cc2ccccc2)c([N+](=O)[O-])c1 | i | -15 | / | 18 | 0 | -1 | 10 | 3
Cc1ccc(C(=O)Cn2cnc3ccccc3c2=O)cc1C | i | / | / | / | -2 | -1 | 0 | 5
O=C(CCN1CCOCC1)c1ccc(N2CCCCC2)cc1 | / | 0 | 5 | 3 | 3 | -5 | / | /
C=CCC1(CC=C)CC(Cc2cnccn2)N(C(=O)OC(C)(C)C)C1 (stereo unspecified) | / | 8 | 9 | / | 3 | 0 | / | /
O=C(NCCC1=CCCCC1)NC12CC3CC(CC(C3)C1)C2 | i | -30 | -321 | / | -3 | 3 | -5 | -1
CC(OC(=O)c1cc(=O)[nH]c2ccccc12)C(=O)NCc1ccccc1 (stereo unspecified) | i | 9 | -3 | 1 | 0 | 2 | / | /
Further compounds follow.
SMILES | Rce1 inhib | Yeast UUG start | HIV Env fusion | CSC inhib | MT1-MMP act inh | MT1-MMP act inh RFP | PABP FP inh | eIF4H inh
O=c1[nH]cc(S(=O)(=O)N2CCCc3ccccc32)c(=O)[nH]1 | i | / | -16 | -5 | 3 | 3 | / | /
Cc1ccc(S(=O)(=O)N2CCOCC2)cc1C(=O)NCCCN1CCCC1=O | / | -17 | -6 | / | 1 | 7 | / | /
COCCNC(=O)C1(C)CCN(C(=O)c2ccc3ccccc3n2)C1 (stereo unspecified) | / | -12 | -6 | / | -4 | -1 | / | /
Cn1c(=O)oc2cc(S(=O)(=O)N3CCC(C(=O)Nc4ccc(OC(F)(F)F)cc4)CC3)ccc21 | i | -1 | / | 3 | 1 | -8 | -10 | -3
O=C(CCC1CCCC1)Nc1ccc(C(=O)NCc2cccnc2)cc1 | i | / | 17 | ? | 5 | -2 | 1 | -6
Cc1onc(-c2c(Cl)cccc2Cl)c1C(N)=O | / | -22 | / | -11 | -3 | 2 | 4 | 14
CCN(CC)CCN(Cc1cc2cccc(C)c2[nH]c1=O)C(=S)Nc1ccccc1 | i | / | -5 | -21 | 1 | 1 | 2 | 1
O=C(O)c1ccc(N2C(=O)Nc3ccccc3N2O)cc1 | i | / | 8 | -7 | 1 | 2 | -8 | -14
CS(=O)(=O)Nc1cccc(-c2cnc3ccccc3n2)c1 | i | / | -57 | -17 | 0 | 1 | 10 | -6
Cn1c(Cc2cccs2)n[nH]c1=S | i | -11 | -37 | -15 | 2 | 2 | -7 | -2
Cn1c(=O)c2c(-c3ccccc3)n(Cc3cccnc3)cc2n(C)c1=O | i | -3 | / | -2 | 2 | 6 | 13 | 4
O=C(Nc1ccc2c(c1)CCC2)c1ccc(Cl)nc1 | i | -13 | -88 | 3 | 4 | 8 | -14 | 0
COC(=O)CSc1ncc(S(=O)(=O)c2ccccc2)c(=O)[nH]1 | i | -16 | -10 | / | -1 | 4 | 1 | 3
Cc1cccc(CNC(=O)Nc2nnc([C@@H]3C[C@H](O)[C@@H](CO)O3)s2)c1 | / | -14 | -469 | / | 0 | 5 | / | /
O=C(CSc1n[nH]c(-c2ccccc2)n1)N1CCCC1 | i | 53 | 2 | / | 2 | 3 | 0 | 3
C=CCNC(=O)c1c(CSc2ccc(Cl)cc2)noc1C(=O)NCc1ccccc1 | i | -3 | 9 | 34 | 4 | -1 | / | /
NC(=O)CSc1nnc(COc2cccc3ccccc23)o1 | i | -22 | -4 | -9 | -7 | -6 | 4 | 4
OCC#CCSc1nnc(-c2ccncc2)o1 | i | -16 | -15 | -17 | -9 | -3 | 12 | -2
c1cc(SC2CCCCC2)cc(-c2nc3cnccn3c2NC2CCCCC2)c1 | / | -11 | 59* | 104* | -30 | -16 | / | /
Cc1cc(NC(=O)COC(=O)CNS(=O)(=O)c2ccc(C)c(C)c2)no1 | i | / | 1 | -11 | 0 | 3 | 4 | 1
Cc1cc(C)c(S(=O)(=O)c2cccc(C(F)(F)F)c2)c(=O)[nH]1 | i | -14 | -22 | 0 | -2 | 4 | 1 | -6
OCCN1CCN(CC(O)COCCOc2ccc(Br)cc2)CC1 (stereo unspecified) | i | / | 17 | 53 | 4 | 0 | 13 | -6
C/C(=N\NC(N)=O)c1c(F)cccc1F | i | -18 | -20 | 4 | 3 | 1 | -10 | 5
Cc1ccc(C(=O)N2CCCCC2)cc1NC1=C(Cl)C(=O)N(Cc2ccccc2)C1=O | / | -7 | -51 | / | 5 | -18 | / | /
O=Cc1cccc2ccc3cccc(C(=O)O)c3c12 | i | / | 0 | -7 | 5 | 6 | / | /

Taken from above:
OCC#CCSc1nnc(-c2ccncc2)o1 | HIV Env fusion = -15
O=C(Nc1ccc2c(c1)CCC2)c1ccc(Cl)nc1 | eIF4H inh = 0
Cc1onc(-c2c(Cl)cccc2Cl)c1C(N)=O | MT1-MMP act inh RFP = 2

Next part.
SMILES | Rce1 inhib | Yeast UUG start | HIV Env fusion | CSC inhib | MT1-MMP act inh | MT1-MMP act inh RFP | PABP FP inh | eIF4H inh
COc1ccc(-n2ncc3c2CC(C)(C)CC3NC(=O)CCn2cncn2)cc1 (stereo unspecified) | i | -20 | -2 | 0 | 0 | 5 | -9 | -7
CC(C)(C)c1ccccc1NC(=O)CN1C(=O)NC2(CCCC2)C1=O | i | -6 | -2 | -10 | 0 | 2 | 0 | -2
Cc1ccc(-n2c3c(cc(C(=O)NCC(=O)c4ccccc4)c2=O)C(=O)CCC3)cc1 | i | -3 | 7 | 0 | -2 | -1 | -8 | 12
N#CC(Sc1ccccn1)c1ccc(Cl)cc1 (stereo unspecified) | i | / | 9 | 0 | -1 | -3 | 0 | -1
CCCCCCSC1=C(C#N)C(c2ccc(O)cc2)CC(=O)N1 (stereo unspecified) | i | -16 | / | 52 | -2 | -12 | -3 | -2
CCCN1CCN(CCCNC(=O)CCNC(=O)Cn2ccc3ccccc3c2=O)CC1 | i | -13 | -109 | 4 | 2 | 2 | 2 | -3
CCC(CC)C(=O)N1CC(=O)Nc2ccc(F)cc2C1c1ccc(F)cc1 (stereo unspecified) | i | -17 | -6 | -5 | 0 | 4 | -15 | -4
O=C1CCCN1CN(C(=O)c1ccccc1)c1ccccc1 | i | / | 2 | 0 | 6 | 10 | -8 | -11
CCN(CC)S(=O)(=O)c1cc(NC(=O)CSc2n[nH]c(N)n2)ccc1C | / | -5 | 9 | -13 | 3 | 2 | / | /
CCOc1cc2[nH]c(=S)n(C3CCN(Cc4ccccc4)CC3)c(=O)c2cc1OCC | i | / | 25 | -12 | 5 | 2 | 4 | -7
Cc1ccc2nc(C3CCCCC3)c(Cc3cccc(Cl)c3)n2c1 | / | 1 | 14 | / | -1 | -13 | / | /
Cc1nn(-c2ccccn2)c2c1C(=O)CC(C)(C)C2N=[N+]=[N-] (stereo unspecified) | / | -3 | -19 | / | -7 | -10 | / | /
O=C(c1ccc(-n2cnnn2)cc1)N1CCOCC1 | i | -14 | / | 11 | 2 | 7 | -18 | -11
CC1CCN(CCc2nc3cc(NC(=O)NC4CCCCC4)ccc3n2C)CC1 | i | -16 | -7 | -2 | -7 | -3 | 0 | 6
O=C(C#Cc1ccccc1)Nc1cccc(F)c1 | i | -8 | ? | 114* | -21 | -23 | -5 | -7
O=C(NC1CCCCC1)C(c1ccncc1)N(C(=O)Cc1cccs1)c1ccccc1 (stereo unspecified) | i | / | 11 | -15 | -6 | -1 | 4 | 1
Cc1ccc(NC(=O)c2noc3c2CCCCC3)cc1 | i | -28 | -184 | 2 | -4 | 1 | 2 | 3
O=C(OCC(=O)N1CCN(c2ccccc2)CC1)C1CCCN1S(=O)(=O)c1ccc(Cl)cc1 (stereo unspecified) | / | 0 | 12 | / | 8 | 3 | / | /
NNC(=O)c1ccc(-c2ccccc2F)cc1 | i | / | -13 | -3 | 7 | -1 | 6 | -12
O=C(NC1CCCC1)C(c1ccncc1)N(C(=O)Cc1cccs1)c1ccc(F)cc1 (stereo unspecified) | i | -11 | 12 | 0 | 3 | 4 | -8 | -15
COc1ccc(-n2c(N)cc(=O)nc2SCC(=O)NC2CCCCC2)cc1 | / | -8 | 8 | / | -2 | 0 | / | /
O=C(CP(=O)(O)CC(=O)c1ccccc1)c1ccccc1 | i | / | -7 | / | 0 | 4 | ? | -6
O=C(N[C@@H](Cc1c[nH]c2ccccc12)C(=O)O)c1ccccc1Cl | i | / | -21 | -22 | 1 | 5 | 5 | 11
